Compound activity: PubChem, National Center for Advancing Translational Sciences (NCATS)
VACV mCherry inh: qHTS for Stage-Specific Inhibitors of Vaccinia Orthopoxvirus: mCherry Reporter Primary qHTS; Potency, µM (top dose mostly 36.5 µM), inactives show at the top dose activity change, negative = inhibition, usual class: inhibitors; 310,000 compounds, 0.63% hits; Vaccinia virus mCherry reporter infection, fluorescence; about a quarter of the inactives have no number; AID 720579, 2013; active = well fitted inhibition curve with a large enough effect; inconclusive = small, poorly fitted or top-dose-only effect; inactive = no such curve, though single readings can be large or run the other way; tested in A549 cells; note: nearly all actives have a fitted effect of over 35% in size; inactives centre near -10
Vaccinia Venus: qHTS for Stage-Specific Inhibitors of Vaccinia Orthopoxvirus: Venus Reporter Primary qHTS; Vaccinia virus Venus reporter expression, fluorescence; Potency, µM (series often up to 36.5 µM), without a hit: at the top dose activity change, negative = inhibition, hits mostly inhibitors; 330,000 compounds, 0.46% hits; active means well fitted inhibition curve with a large enough effect; inconclusive means small, poorly fitted or top-dose-only effect; inactive means no such curve, though single readings can be large or run the other way; tested in A549 cells; note: nearly all actives have a fitted effect of over 30% in size; inactives centre near -10
Starred values were filed as active, the others as inactive; i = inactive; ? = inconclusive; nt = no result given; [ ] = another dose, or the depositor's remark. % is set by controls: 0 for no effect and ±100 for the full control effect; potency is the fitted concentration of half-maximal effect.

The line under a structure holds: VACV mCherry inh | Vaccinia Venus
> CN(CCOC(=O)/C=C/c1ccccc1)C(C)(C)C
    i | 0%
> CCN(CC)CCOCCOc1cc(C)c(Cl)c(C)c1
    ? | -23%
> Cc1ccc(S(=O)(=O)SC/C=C/CSS(=O)(=O)c2ccc(C)cc2)cc1
    i | -10%
> COCC(=O)Nc1ccc2c(c1)[C@@H]1C[C@H](CC(=O)NCc3ccccc3)O[C@@H](CO)[C@@H]1O2
    -7% | -7%
> CN(C)/C=C(\C=O)c1ncc(C(F)(F)F)cc1Cl
    0% | 0%
> O=C(NC1CCCC1)C1C(c2ccc(C(F)(F)F)cc2)=Nc2ccccc2N1C(=O)c1cccc2ccccc12 (stereo not drawn)
    ? | -8%
> O=C1CN(C(=O)c2ccc(Cl)c([N+](=O)[O-])c2)c2ccccc2N1
    -7% | -18%
> Cc1ccc(NC(=O)COC(=O)CCc2c(C)nc3ncnn3c2C)cc1C
    0% | 0%
> CCOC(=O)C1CCN(S(=O)(=O)c2cn(C)c(=O)n(C)c2=O)CC1
    -18% | 1%
> COc1cc(CNC(C)(C)CO)cc(Br)c1OCc1ccccc1
    -13% | -12%
> CSc1ncc(Cl)c(C(=O)Nc2cccc(C)c2)n1
    -3% | -14%
> S=C(NCc1ccc(Cl)cc1)N1CCN(c2ccccn2)CC1
    -6% | -20%
> Cc1nc2ccc(S(=O)(=O)NCC(=O)Nc3ccc(C)c(Cl)c3)cc2s1
    13% | -2%
> O=C(COC(=O)c1cccnc1Cl)Nc1ccccc1OC(F)F
    i | -6%
> CN1CCN(C(=O)c2cc3c(c(-c4cccc(Br)c4)n2)[C@@H](CCO)N(S(=O)C(C)(C)C)C3)CC1 (stereo partly drawn)
    15% | 5%
> COc1cc2c(NC3CCN(C)CC3)nc(N3CCCN(C)CC3)nc2cc1OCC1CCNCC1
    ? | ?
> CC(=O)c1sc2ccccc2c1OC(=O)c1ccco1
    i | -6%
> Cc1cc(NC(=O)CCCS(=O)(=O)c2nc(-c3cccs3)cc(C(F)(F)F)n2)no1
    ? | ?
> Cc1c(C(=O)OCc2ccc(F)cc2)sc2nc3n(c(=O)c12)CCC3
    -10% | -10%
> Cc1ccc2ccccc2c1NC(=O)Cn1nnc(-c2cccnc2)n1
    -19% | -6%
> COC(=O)c1cc(-c2cccs2)nn1-c1ccccc1
    i | -7%
> CCc1ccc(CNC(=O)Cc2ccc(NC(=O)C3=C(C)OCCS3)cc2)cc1
    -17% | -25%
> O=C1CN(C(=O)N[C@@H](Cc2ccccc2)C(=O)N[C@H](Cc2ccccc2)C(=O)O)c2ccccc2N1
    -3% | -6%
> COc1ccc(/C=C/C(=O)Nc2cccc(F)c2)cc1S(=O)(=O)N1CCOCC1
    -27% | ?
> CCOC(=O)c1c(C)nn(-c2ccc(NC(=O)/C=C/C(=O)O)cc2)c1C
    i | -13%
> CCCN1CCN(C(=O)c2cnn(-c3ncc4c(n3)-c3ccccc3CCC4)c2COC)CC1
    -24% | -14%
> N=C1C(c2ccccc2)=C(O)CN1c1cccc(O)c1
    -8% | 2%
> O=C(c1cc(-c2ccccc2)nn1CC1CC(c2cccnc2)=NO1)N1CCOCC1 (stereo not drawn)
    i | -3%
> C=C(CC[C@]12OC(C(=O)O)C(O)(C(=O)O)C(C(=O)O)(O1)C(OC(=O)/C=C/[C@@H](C)C[C@@H](C)CC)C2O)[C@@H](OC(C)=O)[C@H](C)Cc1ccccc1 (stereo partly drawn)
    -2% | -14%
> COC(=O)CCc1sc(NC2CCCCC2)nc1-c1ccc(OC)cc1
    -3% | -9%

An excerpt of these results, tab-delimited:
structure	VACV mCherry inh	Vaccinia Venus
CN(C)/C=C(\C=O)c1ncc(C(F)(F)F)cc1Cl	0%	0%
O=C(NC1CCCC1)C1C(c2ccc(C(F)(F)F)cc2)=Nc2ccccc2N1C(=O)c1cccc2ccccc12 (stereo not drawn)	?	-8%
O=C1CN(C(=O)c2ccc(Cl)c([N+](=O)[O-])c2)c2ccccc2N1	-7%	-18%
Cc1ccc(NC(=O)COC(=O)CCc2c(C)nc3ncnn3c2C)cc1C	0%	0%

Further structures:
The line under a structure holds: VACV mCherry inh | Vaccinia Venus
> CC(C)C(=O)NC(NCC1CCCO1)C(Cl)(Cl)Cl (stereo not drawn)
    nt | 6%
> CN(C1CCCCC1)S(=O)(=O)c1ccc(Cl)c(C(=O)O)c1
    -12% | 1%
> O=C(NCCNC(=O)c1ccccn1)c1cccc(F)c1
    -3% | 11%
> CC(C)(C)n1ncc2c(=O)n(CC(=O)NC3CCCCC3)cnc21
    nt | -15%
> COc1ccc(N2CC(C(=O)Nc3ccc(S(=O)(=O)N4CCCC4)cc3)CC2=O)cc1 (stereo not drawn)
    1% | -16%
> CC(=NCCc1ccccc1)c1c(O)n(C)c(=O)n(C)c1=O
    i | -13%
> Cc1ccc(S(=O)(=O)Nc2nc3ccc(N)cc3s2)cc1
    -23% | -5%
> Cc1ccc(C(=O)Nc2ccncc2)cc1S(=O)(=O)N1CCCCC1
    ? | ?
> O=C1CN(S(=O)(=O)c2ccccc2Cl)CCN1
    i | -13%
> Cc1noc(/C=C/N(C)C)c1S(=O)(=O)N1CCCC(C(=O)NCc2cccs2)C1 (stereo not drawn)
    5% | -3%
> CCOC(=O)CC(NC(=O)c1cc2cccc(OC)c2oc1=O)c1cccc([N+](=O)[O-])c1 (stereo not drawn)
    -15% | -7%
> OC(COc1ccc(Cl)cc1)CN1CCN(c2ccccn2)CC1 (stereo not drawn)
    -22% | -13%
> O=C(NC1(C(F)(F)F)N=C(c2ccccc2)NC1=O)c1ccccc1F (stereo not drawn)
    -16% | -6%
> NC(=O)C1CCN(C(=S)NCc2ccc3c(c2)OCO3)CC1
    i | -7%
> CCCCNC(=O)C1CCC(Cn2c(=O)c3sccc3n(Cc3ccccc3)c2=O)CC1 (stereo not drawn)
    -19% | -22%
> Cc1ccc(CNC(=O)CSC2=Nc3ccccc3C3=NC(C)C(=O)N23)cc1 (stereo not drawn)
    -17% | -13%
> Cc1ccc(Nc2nc(N)c([N+](=O)[O-])c(NCc3ccccc3)n2)cc1
    -10% | -19%
> CN1C(=O)C(=Cc2ccccc2OCc2ccccc2Cl)C(=O)N(C)C1=O
    i | 2%
> O=C(Nc1cccnc1)c1ccc(NC(=O)c2ccco2)cc1
    -18% | -4%
> O=S1(=O)N=C(N/N=C/c2cccs2)c2ccccc21
    -17% | -9%
> O=C(c1ccc(F)cc1)N1C2CCC1CC(O)(c1ccccc1F)C2 (stereo not drawn)
    -14% | -18%
> Cc1ccnc(NC(=O)CN2C(=O)c3ccccc3S2(=O)=O)c1
    -19% | 0%
> O=[N+]([O-])c1ccc(O)c(C=NNc2ccc(S(=O)(=O)O)cc2)c1
    i | -3%
> NCCS(=O)(=O)O
    i | -17%
> COC(=O)CNc1nc(-c2cccnc2)nc2ccccc12
    -17% | -17%
> CCC1CN(C(=O)N2CCC(C(=O)NCc3cccc(C)c3)CC2)c2ccccc2O1 (stereo not drawn)
    -1% | -14%
> C[C@H](CO)N1C[C@H](C)[C@@H](CN(C)C(=O)c2cnccn2)Oc2cc(C#CCC3CCCC3)ccc2S1(=O)=O
    -8% | -21%
> COc1ccc(-c2nc(CS(=O)CC(=O)NCc3ccco3)c(C)o2)cc1OC (stereo not drawn)
    -3% | -10%
> COc1ccc(N2CCN(C(c3ccccc3OC)c3nnnn3C3CCCC3)CC2)cc1 (stereo not drawn)
    nt | -19%
> CCOC(=O)C1CCN(C(=O)C2CCN(S(=O)(=O)N3CCC4(CC3)OCCO4)CC2)CC1
    -11%[7.34 µM] | -6%[7.34 µM]

Retrieved by compound from the list above, 7 records:
The line under a structure holds: VACV mCherry inh | Vaccinia Venus
> CCOC(=O)C1CCN(C(=O)C2CCN(S(=O)(=O)N3CCC4(CC3)OCCO4)CC2)CC1
    -11%[7.34 µM] | -6%[7.34 µM]
> Cc1ccc(Nc2nc(N)c([N+](=O)[O-])c(NCc3ccccc3)n2)cc1
    -10% | -19%
> O=C(Nc1cccnc1)c1ccc(NC(=O)c2ccco2)cc1
    -18% | -4%
> CC(C)C(=O)NC(NCC1CCCO1)C(Cl)(Cl)Cl (stereo not drawn)
    nt | 6%
> O=C(NC1(C(F)(F)F)N=C(c2ccccc2)NC1=O)c1ccccc1F (stereo not drawn)
    -16% | -6%
> CN(C1CCCCC1)S(=O)(=O)c1ccc(Cl)c(C(=O)O)c1
    -12% | 1%
> CC(=NCCc1ccccc1)c1c(O)n(C)c(=O)n(C)c1=O
    i | -13%

Continued:
The line under a structure holds: VACV mCherry inh | Vaccinia Venus
> COC1CCCN(Cc2nc(Cc3ccccc3F)no2)C1 (stereo not drawn)
    -6% | -14%
> Cc1cc(OC(C(=O)O)c2ccccc2)c2c(C)c(Cc3ccccc3)c(=O)oc2c1 (stereo not drawn)
    ? | 0%
> CCN(CC)C(=O)COc1ccc2c(-c3ccccc3)cc(=O)oc2c1
    i | -24%
> C[C@H](CO)N1C[C@H](C)[C@@H](CN(C)C(=O)Nc2ccc(C(F)(F)F)cc2)Oc2ccc(NC(=O)Nc3ccc(C(F)(F)F)cc3)cc2C1=O
    -18% | ?
> O=S(=O)(Nc1ccc(N2CCCCC2)cc1)c1ccc(F)c(F)c1
    -17% | ?
> O=C(c1ccc(NS(=O)(=O)c2cccc(F)c2)cc1)N1CCCC1
    i | -15%
> Cc1ccn2cc(CCNC(=O)Cc3cccs3)nc2c1
    35%[activator] | 3%
> COCCOc1ccc(C(F)(F)F)cc1NC(=O)c1ccccc1F
    -2% | -6%
> CC(=O)C1C(c2ccc(F)cc2)NC(=O)NC1(O)C(F)(F)F (stereo not drawn)
    -11% | -8%
> COc1ccc(-n2c(=O)cc(N3CC(C)OC(C)C3)[nH]c2=O)cc1 (stereo not drawn)
    -6% | 12%
> CCOC(=O)[C@H]1[C@H]2COc3ccccc3[C@@H]2N2C(=O)CN(CC3CCCO3)C(=O)[C@@]12C (stereo partly drawn)
    i | 0%
> COc1ccc(NC(=O)c2oc3ccccc3c2NC(=O)c2cccc(F)c2)c(OC)c1
    -4% | -2%
> O=C(CNC(=O)c1ccccc1O)N/N=C/c1ccccn1
    -26% | -23%
> O=C1CC(c2cc(-c3ccccc3)no2)C1
    i | -6%
> C=CCn1c(C)cc(C2=NNC(=NCC)SC2)c1C
    -1% | -24%
> COc1ccccc1NC(=O)c1cc(C(=O)Nc2ccccc2OC)n(C)n1
    -13% | 3%
> CCOc1ccc(-c2nonc2NC(=O)c2ccccc2C)cc1
    -11% | -7%
> COC(=O)COc1ccc(S(=O)(=O)Nc2ccc(NC(C)=O)cc2)cc1C
    -13% | -1%
> COc1cccc(Nc2ncnc3c2cnn3C)c1
    -12% | 10%
> Nc1ccc(N2CCN(C(=O)c3ccco3)CC2)cc1
    12% | 14%
> O=S(=O)(c1ccccc1)N(CC(O)CN1CCCC1)c1ccccc1 (stereo not drawn)
    -8% | -9%
> COC(C[C@H]1O[C@@H]1C(=O)[C@H](C)OCc1ccccc1)OC
    i | -20%
> CCOc1ccc(CCNC(=O)COC(=O)/C=C/c2ccc(OCC#N)c(OC)c2)cc1OCC
    i | 0%
> Cc1ccc(OCc2ccc(C(=O)NNC(=S)NCC3CCCO3)o2)c([N+](=O)[O-])c1 (stereo not drawn)
    -8% | -7%
> NC(Cn1ccc(=O)c(O)c1)C(=O)O (stereo not drawn)
    -13% | -10%
> COC(=O)[C@@H]1CCCN1Cc1ccc2c(c1)CN(Cc1cccn1-c1ccccn1)CCO2
    -3% | 8%
> CCOc1ccc(/C=N/NC(=O)CCC(=O)Nc2ccc(F)cc2)cc1
    i | -18%
> CC(=O)Nc1ccc2c(c1)Cc1cc(N3C(=O)C=CC3=O)ccc1-2
    i | -5%
> CCCn1c(N)c(N(C)C)c(=O)n(CC(=O)Nc2ccc(OC(F)(F)F)cc2)c1=O
    -15% | -6%
> C/C(=N/OC(=O)c1ccc(C(F)(F)F)cc1)c1oc(C)nc1C
    i | -18%

The line under a structure holds: VACV mCherry inh | Vaccinia Venus
> Cn1c(N)c(C(=O)CSc2ccccn2)c(=O)n(C)c1=O
    -16% | -14%
> CC1(C)CC(c2csc(N)n2)CCO1 (stereo not drawn)
    nt | 6%
> Cc1ccn(Cc2n[nH]c(=S)n2Cc2ccccc2)n1
    nt | -4%
> COc1ccc(N(CC(O)CN2CCOCC2)S(=O)(=O)c2ccc(C)cc2)cc1 (stereo not drawn)
    -17% | -3%
> COC(=O)[C@]12C(=O)NC[C@H](CN1c1ccc(Cl)c(C)c1)N2C
    -20% | -10%
> CS(=O)(=O)Nc1ccc(C2=NN(C(=O)c3ccco3)C(c3ccco3)C2)cc1 (stereo not drawn)
    ? | -29%
> Cc1nn(-c2ccc(F)cc2)c2c1cc(C#N)c1nc3ccccc3n12
    i | ?
> CN1C(=O)C(=Cc2cn(CC(=O)N3CCCC3)c3ccccc23)C(=O)N(C)C1=O
    -9% | 11%
> CCOC(=O)C1CCC(CN(Cc2cccc(Br)c2)S(=O)(=O)c2ccc(C)cc2)CC1 (stereo not drawn)
    -13% | -10%
> O=C1NN(c2ccc(F)cc2)C(=O)/C1=C\C=C\c1ccco1
    -10% | -10%
> COC(=O)[C@@H]1[C@@H](C)OC(=O)N[C@H]1c1ccccc1
    ? | 7%
> COc1ccccc1NC(=O)Nc1ccnn1C1CCN(C(=O)c2ccccn2)CC1
    -18% | -12%
> Cc1cc2c(c(=O)o1)C1(C)CC(C)(O2)c2c(cc(C)oc2=O)O1
    -10% | -5%
> O=C1COc2ccc(C(=O)c3ccccc3)cc2CN1
    i | -12%

Compounds as they come; about 0.87% have a hit in one of these screens.
